# High-throughput results (PubChem BioAssay)
# CSC inhib: cancer stem cell viability inhibitors, primary screen, luminescence; inhibition, % at 7.5 µM; 300,000 compounds, 1.1% hits; AID 2717, 2010; cancer stem cell-like cells viability;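 active means mean at 75% or more and at least half the replicates too; inconclusive means mean and replicates disagree; tested in HMLE shEcad cells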;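 further: 0% = median of negative and 100% = median of positive control wells; the first replicate is given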
# MT1-MMP act inh: blockers of MT1-MMP proenzyme processing, primary screen, HT1080 RFP-PRO-GFP cells, GFP/RFP fluorescence | Matrix metalloproteinase-14 (Homo sapiens), P50281 | GFP/RFP ratio fluorescence, overnight; percent of plate control window, DMSO zero | GFP/RFP ratio change, % at 20 µM | 360,000 compounds, 0.061% hits | AID 651647, 2012;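 active means GFP/RFP ratio change of at least 30% with cell ATP level not reduced by more than half and red fluorescence within 50% of control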; further: strong numbers were not always called active
#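 Test system: HT1080 cells expressing an RFP-PRO-GFP fluorescent reporter construct / Compound dosing: single-point 20 µM compound, 1% DMSO / Schedule: cells overnight before dosing, compound overnight, 37 °C, 5% CO2 / Evaluation: GFP/RFP fluorescence ratio / Control set: DMSO and RFP-L50D-GFP cell wells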
# PABP polyA inh: PABP poly(A) RNA binding inhibitors, primary screen, biochemical, fluorescence polarization, uHTS. inhibition, % at 35 µM. 290,000 compounds, 1% hits. AID 2014, 2009;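 active means 50% or more with normal probe brightness, or confirmed in later tests; inconclusive means above 50% with abnormal brightness, or retests that disagree; inactive means below 50% or failed in later tests; about a fifth of its hits are not listed in these tables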;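 further: calls also rest on retests at 20 µM and on dose response follow-up; controls were probe without protein and protein plus probe with vehicle; some compounds called inactive have numbers as strong as hits; many hits fall short of the cut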
# Target sequence (P11940 whole entry, looked up): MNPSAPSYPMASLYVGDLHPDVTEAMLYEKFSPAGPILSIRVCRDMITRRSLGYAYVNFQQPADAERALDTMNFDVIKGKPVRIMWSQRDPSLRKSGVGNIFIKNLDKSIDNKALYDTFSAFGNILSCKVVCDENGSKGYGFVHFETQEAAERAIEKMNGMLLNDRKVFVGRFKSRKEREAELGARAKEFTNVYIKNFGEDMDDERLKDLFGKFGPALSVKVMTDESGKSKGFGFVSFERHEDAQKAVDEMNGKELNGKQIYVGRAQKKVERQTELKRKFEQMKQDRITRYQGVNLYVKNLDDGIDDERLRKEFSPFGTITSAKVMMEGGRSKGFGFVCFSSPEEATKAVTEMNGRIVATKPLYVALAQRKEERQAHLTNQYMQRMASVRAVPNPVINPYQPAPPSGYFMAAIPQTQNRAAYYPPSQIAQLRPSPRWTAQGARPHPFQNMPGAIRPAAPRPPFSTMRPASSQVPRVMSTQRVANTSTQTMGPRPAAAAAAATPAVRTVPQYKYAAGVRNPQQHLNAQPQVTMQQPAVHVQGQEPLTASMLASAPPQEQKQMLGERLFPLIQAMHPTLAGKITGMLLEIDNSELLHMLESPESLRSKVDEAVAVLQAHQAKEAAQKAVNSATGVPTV
# Env fusion inh: inhibitors of HIV-1 Env-driven cell-cell fusion, primary screen, HeLa-JRFL effector, CEM21 target cells, luciferase; inhibition, % at 12.3 µM; 360,000 compounds, 1.1% hits;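 active means mean replicate inhibition score of at least 50 and every replicate individually at or above 50; inconclusive means only one of the two criteria met; inactive means mean below 50 and not all replicates reaching 50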;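 further: 0% = plate neutral controls and 100% = maraviroc near 300 nM; one replicate is shown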
# eIF4H FP inh: human eIF4H binding inhibitors, primary screen, translation initiation inhibitor project, biochemical, uHTS, fluorescence polarization. Eukaryotic translation initiation factor 4H (Homo sapiens), Q15056. eIF4H fluorescence polarization binding assay. inhibition, % at 35 µM. 290,000 compounds, 0.94% hits. AID 2012, 2009;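 active means 50% or more with normal probe brightness, or confirmed in later tests; inconclusive means above 50% with abnormal brightness, or retests that disagree; inactive means below 50% or failed in later tests; about a fifth of its hits are not listed in these tables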;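 further: calls also rest on retests at 20 µM and on dose response follow-up; 0% = protein and probe with vehicle and 100% = probe without protein; strong numbers were not always called active; many hits fall short of the cut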
# UUG fidelity: modulators of yeast start codon fidelity, primary screen, whole organism, S. cerevisiae, single point, plate reader. S. cerevisiae UUG-firefly luciferase reporter, luminescence/redox ratio. activity score, % at 18.7 µM. 350,000 compounds, 0.13% hits;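 active means replicate mean at a twofold rise or more, about +100% in these data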;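 further: firefly luciferase made from a UUG start codon reports start codon fidelity; reporter light over untreated wells divided by growth signal over untreated wells; some hits fall short of that in this replicate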
# Rce1 inh: yeast Rce1p protease inhibitors, primary screen, biochemical, fluorescence, cell-free homogeneous. yeast membranes, quenched prenylated peptide cleavage fluorescence. 290,000 compounds, 0.27% hits. CAAX prenyl protease 2 (Saccharomyces cerevisiae (strain ATCC 204508 / S288c)), Q03530. calls only;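 active means fall in fluorescence gain of 50% or more versus controls, with final raw signal at or below 3038400; inconclusive means same 50% fall but final raw signal above 3038400; inactive means fall in fluorescence gain under 50%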;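 further: plate controls were neutral control wells for no effect and wells lacking membranes for full effect; tested at 10 µM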
# eIF4H FP inh retest: further read-out of eIF4H FP inh, marked with its call; inhibition, %; compound at 20 µM; confirmation average;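 mean of two retest wells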
# PABP polyA inh retest: also measured in PABP polyA inh; calls as there; inhibition, %; compound at 20 µM; confirmation repeats;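 mean of two retest wells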
# MT1-MMP act inh RFP: further read-out of MT1-MMP act inh, marked with its call; RFP signal change, %; measured here: RFP expression control read;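 0 = vehicle wells; hits needed this value within 50% of zero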
# * = called active by the depositor; i = inactive; ? = inconclusive; . = not tested or not shown; & = joins results of further samples; [ ] = dose if it differs, or a comment.
SMILES,CSC inhib,MT1-MMP act inh,MT1-MMP act inh RFP,PABP polyA inh,Env fusion inh,eIF4H FP inh,UUG fidelity,Rce1 inh,others
C[C@@H]1CN([C@H](C)CO)C(=O)Cc2cc(NC(=O)CCC(F)(F)F)ccc2O[C@@H]1CN(C)C(=O)NC1CCCCC1,-6,-1,3,.,-2[16.7 µM],.,10&5,.,
Cc1cccc(N2CCN(C(=O)CCCn3c(=O)[nH]c4ccsc4c3=O)CC2C)c1 (stereo unspecified),-19,5,0,8,11,-6,7,i,
CCN(CC)CCNC(=O)c1ccc(NC(=O)C2CCN(S(=O)(=O)c3ccc4c(c3)OCCO4)CC2)cc1,.,-1,3,.,-8,.,-1,i,
C/C(=N/NC(=O)c1cccs1)c1ccc(NC(=O)COc2ccc(Cl)cc2)cc1,-1,10,-2,0,-62,-8,-2,i,
COC(=O)c1sccc1NC(=S)OC,-13,1,1,3,-4,-4,.,i,
COc1ccc(-n2c(C)c(C(C)=O)c3cc(OCC(N)=O)ccc32)cc1,1,2,-1,-2,4,4,-7,i,
COc1ccccc1CN1CCCC(CNC(=O)c2cccc3ccccc23)C1 (stereo unspecified),-10,-1,0,0,?,10,0,i,
O=C(CN1C(=O)c2cccnc2Oc2ccc(Cl)cc21)NCCCc1ccccc1,-11,0,-3,.,8,.,-3,i,
Cn1c(=O)c2c(ncn2CC(=O)Nc2ccc3c(c2)OCO3)n(C)c1=O,0,-2,-4,-6,6,-4,-18,i,
OC(CN1CCN(c2cccc(Cl)c2)CC1)C(c1ccccc1)c1ccccc1 (stereo unspecified),23,4,0,.,-146,.,-5,.,
CC(=O)Nc1ccc(NC(=O)Oc2ccccc2)cc1,-5,4,4,-2,.,-9,-26,i,
COc1cccc(C(=O)NCc2ccco2)c1OC,-9,-1,1,2,-17,-11,-7,i,
O=C(CC[C@H]1O[C@@H](n2ccc(=O)[nH]c2=O)[C@H](O)[C@@H]1O)N[C@H](Cc1ccccc1)C(=O)NCCCc1ccccc1,.,2,1,.,9,.,27,.,
CCCC1/C(=N/O)CC(c2ccccc2)NC1c1ccccc1 (stereo unspecified),2,-10,-7,7,27,-1,.,i,
CCn1c(SCC(=O)NCc2ccc(C)cc2)nnc1-c1ccncc1,-18,3,0,-3,.,-5,-18,i,
OCc1nn2c(c1Br)NC(c1ccccc1)CC2C(F)(F)F (stereo unspecified),29,2,2,-3,.,-15,-4,i,
O=C(Cc1cccs1)Nc1nc2c(s1)CCCC2,-1,0,0,-5,-114,-2,-28,i,
CNC(=O)c1cccnc1Nc1cccc(C(F)(F)F)c1,.,-1,-3,6,-8,-3,.,i,
Cc1nc2ccccc2nc(C)c1=NOCc1ccc(C#N)cc1,-11,.,.,-4,-1,5,.,i,
COc1cc(/C=N/n2nnnc2N)ccc1OCC#N,-2,3,4,13,-142,-2,-2,i,
N#CCCN(C(=O)COC(=O)C1=COCCO1)c1ccc(F)cc1,-13,3,8,.,-8,.,-20,i,
COC(=O)c1sccc1NC(=O)CSc1ccccc1NS(=O)(=O)c1ccc(Br)cc1,24,0,-3,4,-102,-7,-5,i,
Cc1ccc(NC(=S)NCc2ccc3c(c2)OCO3)c(C)c1,-5,2,4,2,-17,0,-27,i,
COc1ccc(N(CC(=O)NC2CCCCC2)C(=O)CNC(=O)c2ccco2)c(OC)c1,13,1,1,-9,-34,12,-2,i,

# Grouped by structure, the entries above containing bromine
SMILES,CSC inhib,MT1-MMP act inh,MT1-MMP act inh RFP,PABP polyA inh,Env fusion inh,eIF4H FP inh,UUG fidelity,Rce1 inh,others
OCc1nn2c(c1Br)NC(c1ccccc1)CC2C(F)(F)F (stereo unspecified),29,2,2,-3,.,-15,-4,i,
COC(=O)c1sccc1NC(=O)CSc1ccccc1NS(=O)(=O)c1ccc(Br)cc1,24,0,-3,4,-102,-7,-5,i,

# Later entries.
SMILES,CSC inhib,MT1-MMP act inh,MT1-MMP act inh RFP,PABP polyA inh,Env fusion inh,eIF4H FP inh,UUG fidelity,Rce1 inh,others
COc1ccc(C)cc1S(=O)(=O)N(CC(=O)O)c1ccccc1,.,-4,2,3,.,5,3,i,
CC12CCC(C(=O)NCCc3ccccc3)(OC1=O)C2(C)C (stereo unspecified),-5,0,2,-1,4,-8,.,i,
Oc1c(C=Nc2cccnc2)sc2ccccc12,13,13,17,13,.,-9,-28,i,
CCO[C@H]1c2c(ccc3ccc(=O)oc23)OC(C)(C)[C@@H]1O,-9,-2,1,.,12,.,-25,.,
COc1ccccc1CNS(=O)(=O)c1ccc2[nH]cc(C(=O)O)c(=O)c2c1,-6,6,7,17,.,14,-9,i,
COC(=O)C(NC(=O)Nc1ccccc1OC)C(C)C (stereo unspecified),18,-4,0,5,.,-6,-23,i,
COc1ccccc1/C=N/NC(=O)c1[nH]c(C)c(C(=O)N/N=C/c2ccccc2OC)c1C,-11,3,1,4,3,-9,.,i,
CC(C)N1C(=S)SC(C)(C)C1n1oc(=O)n(-c2ccc(Cl)c(Cl)c2)c1=O (stereo unspecified),17,1,-1,0,2,-3,-6,i,
CC(O)[C@H](NC(=O)C1(c2ccccc2)CCN(C(=O)OC(C)(C)C)CC1)C(=O)O (stereo partly specified),-19,3,2,2,26,0,-6,i,
CC1CCCCN1CCNc1nc(=S)[nH]c2ccccc12 (stereo unspecified),-13,-3,5,-7,-12,5,2,i,
CC1CCC(C(=O)NC(C(=O)N2CCC(N3CCCCC3)CC2)C(C)C)CC1 (stereo unspecified),-5,2,2,7,-58,-3,-16,i,
Cc1cc(NCCc2ccc(Cl)cc2)n2ncnc2n1,-3,4,-6,0,-14,2,.,i,
CCN1CCc2c(C#N)c(NCc3ccccc3)nc(N(CC)CC)c2C1,10,3,3,27,1,37,.,.,
CCOc1ccc2nc(SCC(=O)N3CCCc4ccccc43)sc2c1,5,1,-4,4,17,4,-15,i,
CC(C)(C)OC(=O)N1CCC(C(=O)N[C@H](Cc2ccccc2)C(=O)O)CC1,-8,10,11,2,.,-1,-6,i,
CCCc1ccc(-c2ccc(F)c(N)c2)nc1,33,8,2,-4,.,0,-45,i,
CC(CNC(=O)CCS(=O)(=O)c1ccc2c(c1)oc(=O)n2C)c1ccccc1 (stereo unspecified),-2,-1,-2,11,3,-4,-7,i,
COC(=O)c1sc2nc(SCc3cccc(F)c3)n(N)c(=O)c2c1C,-4,-2,1,-1,18,3,-20,i,
Cc1ccc(-c2nc(-c3cccnc3)sc2CC(=O)O)cc1,5,3,7,9,7,-10,.,i,
Cc1cc(C)nc(N2CCCC(C(=O)Nc3nc4ccc(S(C)(=O)=O)cc4s3)C2)n1 (stereo unspecified),.,-6,-5,14,-27,-4,.,i,
Brc1ccc2nc(-c3ccncc3)c(NC3CCCC3)n2c1,-4,-7,-7,-1,30,-2,.,i,
Cc1[nH]c2ccccc2c1-c1nc(-c2ccc(Cl)cc2)nnc1-c1ccccc1,10,.,.,21,.,-3,.,i,
O=C(c1cccc2c1-c1ccccc1/C2=N/O)N1CCCCC1,-7,-7,-7,-10,?,-12,19,i,
CCCC(=O)Nc1ccc2c(c1)nc(CCNC(=O)c1ccco1)n2C,2,1,1,-1,6,-14,-20,i,

# Gathered by group, the entries above containing a COOH group
SMILES,CSC inhib,MT1-MMP act inh,MT1-MMP act inh RFP,PABP polyA inh,Env fusion inh,eIF4H FP inh,UUG fidelity,Rce1 inh,others
COc1ccc(C)cc1S(=O)(=O)N(CC(=O)O)c1ccccc1,.,-4,2,3,.,5,3,i,
COc1ccccc1CNS(=O)(=O)c1ccc2[nH]cc(C(=O)O)c(=O)c2c1,-6,6,7,17,.,14,-9,i,
CC(O)[C@H](NC(=O)C1(c2ccccc2)CCN(C(=O)OC(C)(C)C)CC1)C(=O)O (stereo partly specified),-19,3,2,2,26,0,-6,i,
CC(C)(C)OC(=O)N1CCC(C(=O)N[C@H](Cc2ccccc2)C(=O)O)CC1,-8,10,11,2,.,-1,-6,i,
Cc1ccc(-c2nc(-c3cccnc3)sc2CC(=O)O)cc1,5,3,7,9,7,-10,.,i,

# Continued:
SMILES,CSC inhib,MT1-MMP act inh,MT1-MMP act inh RFP,PABP polyA inh,Env fusion inh,eIF4H FP inh,UUG fidelity,Rce1 inh,others
Cc1c(-c2ccccc2)[n+](=O)c2c(n1[O-])CCCC2,-12,-3,1,11,12,-4,-19,i,
Fc1ccc(NC(=S)Nc2cccc(Cl)c2)cc1,6,-1,2,-2,15,-5,.,i,
COCc1[nH]nc2c1C(c1ccccc1OC)C(C#N)=C(N)O2 (stereo unspecified),-4,0,1,10,.,-2,.,i,
N#CC(C#N)=NNc1ccc(S(=O)(=O)N2CCCCC2)cc1,-19,-9,-4,0,0,6,-19,i,
CC(=O)Nc1ccc(S(=O)(=O)Nc2nc3ccc(C)cc3s2)cc1,23,1,2,5,6,4,-9,i,
O=C1OC[C@H](Cc2ccc3c(c2)OCO3)/C1=C\c1ccc2c(c1)OCO2,-10,-9,-27,.,.,.,-3,i,
Cc1ccc(C)c(N(C(=O)CNC(=O)c2ccco2)C(C(=O)NC2CCCCC2)c2ccncc2)c1 (stereo unspecified),0,1,2,3,-3,-2,-8,i,
CCC(C)(C)NC(=O)C1CC(=O)N(CCc2ccc(F)cc2)C1 (stereo unspecified),-8,3,7,6,9,-6,-5,i,
CCCS(=O)(=O)NC(=O)C1(C)CCCN(C(=O)CCc2cccs2)C1 (stereo unspecified),.,6,5,.,-3,.,-21,.,
CCOC(=O)c1c(CN(C)C)n(-c2ccc(C)cc2)c2cc(Br)c(O)cc12,1,0,-7,-2,.,-5,.,i,
O=C1c2cccnc2C(=O)N1Cc1ccc(S(=O)(=O)N2CCOc3ccc(Cl)cc32)cc1,-7,0,4,-8,.,-21,-12,i,
Cc1ccc(NC2CCCN(C(=O)c3ccoc3C)C2)cc1C (stereo unspecified),.,1,1,-4,20,-11,-9,i,
Cc1ccc(CC(=O)Nc2ncc([N+](=O)[O-])s2)cc1,8,1,-3,2,-29,-8,-10,i,
C/C(CC(=O)Nc1cc(C)ccn1)=N\NC(=O)c1ccccc1C,2,-1,1,25*,-13,67,-17,i,eIF4H FP inh retest=18;PABP polyA inh retest=55*
O=S(=O)(NC1CCCCC1)c1ccc(Br)cc1,-11,2,-1,2,.,3,3,i,
C=CCN(CC=C)C(=S)NC(=O)c1ccc(-c2ccccc2)cc1,37,14,-3,-2,.,12,-3,i,
CCCn1c(C(C)Nc2nc(-c3ccc(C)cc3)cs2)nc2cc(Cl)c(N3CCCCC3)cc21 (stereo unspecified),19,-27,3,-17,.,-15,-28,i,

# Only part of the results is shown; the hit share may differ from the screen's.
